High-throughput results from PubChem.
EPAC2 antag: validation of human EPAC2 antagonists; EPAC2 Rap1B BODIPY-GDP exchange, fluorescence; Potency, µM (series often up to 112 µM), for the others: at the top dose activity, negative = inhibition, actives largely listed as inhibitors; 16,000 compounds, 1.7% hits; AID 1645886; active means well fitted inhibition curve with a large enough effect; inconclusive means small, poorly fitted or top-dose-only effect; inactive means no such curve, though single readings can be large or run the other way;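 further: 100% = activation by cAMP agonist control; nearly all actives have a fitted effect of over 40% in size; the record reuses the description of the EPAC1 agonist screen; inactives centre near -10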
Target sequence (Q8WZA2 whole entry, looked up): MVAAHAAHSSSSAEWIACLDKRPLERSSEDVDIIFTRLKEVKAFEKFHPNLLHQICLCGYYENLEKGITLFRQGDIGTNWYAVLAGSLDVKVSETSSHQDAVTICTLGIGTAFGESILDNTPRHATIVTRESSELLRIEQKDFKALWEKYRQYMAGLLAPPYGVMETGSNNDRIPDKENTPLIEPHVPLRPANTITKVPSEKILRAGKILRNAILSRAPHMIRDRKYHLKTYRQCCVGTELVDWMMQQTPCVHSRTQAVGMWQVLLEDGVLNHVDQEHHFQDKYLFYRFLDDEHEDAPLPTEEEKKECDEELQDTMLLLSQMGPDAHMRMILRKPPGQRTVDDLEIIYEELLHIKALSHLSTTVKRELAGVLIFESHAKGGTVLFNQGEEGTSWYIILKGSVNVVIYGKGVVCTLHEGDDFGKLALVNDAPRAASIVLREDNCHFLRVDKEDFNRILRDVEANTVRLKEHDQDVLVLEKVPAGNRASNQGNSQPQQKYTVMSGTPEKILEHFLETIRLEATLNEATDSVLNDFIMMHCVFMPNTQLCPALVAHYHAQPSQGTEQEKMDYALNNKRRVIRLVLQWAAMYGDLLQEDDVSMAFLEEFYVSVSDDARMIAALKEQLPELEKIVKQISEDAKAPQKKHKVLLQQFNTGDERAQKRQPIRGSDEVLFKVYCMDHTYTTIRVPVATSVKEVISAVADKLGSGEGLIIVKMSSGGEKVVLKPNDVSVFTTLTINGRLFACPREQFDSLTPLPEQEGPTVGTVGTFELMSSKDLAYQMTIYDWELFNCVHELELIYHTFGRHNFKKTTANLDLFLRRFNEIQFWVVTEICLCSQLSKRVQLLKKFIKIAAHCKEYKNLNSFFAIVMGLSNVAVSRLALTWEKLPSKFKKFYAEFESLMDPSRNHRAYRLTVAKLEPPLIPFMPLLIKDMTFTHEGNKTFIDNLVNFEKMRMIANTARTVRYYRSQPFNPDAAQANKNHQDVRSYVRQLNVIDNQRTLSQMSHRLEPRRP
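Fluorescent exchange read-out: 100 nM EPAC2 with 250 nM RAP1B–BODIPY-GDP and 50 uM GDP; BODIPY-GDP release lowers fluorescence. Read at 480/540 nm every 5 min for 30 min at room temperature; normalized to 6.5 mM cAMP.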
The depositor's hits bear a star; ? = inconclusive; & = joins results of further samples; [ ] = dose if it differs, or a comment. Potency means the concentration at half of the fitted maximal effect.

SMILES	EPAC2 antag
O=C(Cn1cccn1)N1CCOc2c(cc(-c3ncc(C(F)(F)F)cc3Cl)cc2OCC2CCCO2)C1 (stereo not given)	-24.4%
COCCn1c(=O)c(-c2cc(F)cc(F)c2)nc2cnc(Oc3cccc(Cl)c3)nc21	-2.8%
O=C(/C=C/c1ccc(O)c(O)c1)OC(Cc1ccc(O)c(O)c1)C(=O)O (stereo not given)	22.5%&4.5%
Cc1nc2cnc(N(C)C)nc2n(C)c1=O	-11.2%
COc1cccc(-c2nc(N(C)C)c3ccccc3n2)c1	-24.1%
c1csc(CNc2nc(-c3ccoc3)nc3ccccc23)c1	-10.5%
COC(=O)[C@@H]1[C@H]2C[C@H]3c4[nH]c5ccccc5c4CCN3C[C@H]2CC[C@@H]1O	1.4%
COc1ccccc1CNc1ccnc(-c2ccccc2Cl)n1	-24.2%
CCN(CC)CCOC(=O)C1(c2ccc([N+](=O)[O-])cc2)CCCC1	-1.0%&-25.4%
CCCCCCCCCc1ccc(OCCOCCO)cc1	?
CN(C)C(=O)/N=N/C(=O)N(C)C	-2.7%
Cc1oc(-c2ccccc2NC(=O)C2CCCO2)nc1CNC(=O)c1cc(Cl)ccc1F (stereo not given)	-18.5%
CCS(=O)(=O)Nc1cc(C(=O)N2C[C@@H](C)O[C@@H](C)C2)c2c(c1)nc(-c1ccccc1)n2C	-9.0%
COc1ncc2nc(-c3cn(C)c4ccccc34)c(=O)n(Cc3ccc(F)cc3)c2n1	-6.2%
CC(C)NCC(O)COc1ccc(CC(N)=O)cc1 (stereo not given)	-16.7%&-17.3%&-5.9%
CCCC(=O)c1cc(O)c(O)cc1O	37.3%[activator][239 µM]
CC(=O)[C@H]1CC[C@H]2[C@@H]3C=CC4=CC(=O)CC[C@@]4(C)[C@H]3CC[C@]12C	0.9%[56.6 µM]
Cc1ccc(C(=O)Nc2ccc(S(=O)(=O)O)c3cc(S(=O)(=O)O)cc(S(=O)(=O)O)c23)cc1NC(=O)c1cccc(NC(=O)Nc2cccc(C(=O)Nc3cc(C(=O)Nc4ccc(S(=O)(=O)O)c5cc(S(=O)(=O)O)cc(S(=O)(=O)O)c45)ccc3C)c2)c1	-8.3%&16.4%&34.2%&2.2%
CCN1CCC[C@H]1CNC(=O)c1c(O)c(Cl)cc(Cl)c1OC	6.4%&14.3%&-16.6%
N#Cc1cccc(-c2cncnc2-n2ccnc2)c1	-8.0%
NC(=O)NNc1ccccc1	-7.2%&-16.6%
CO[C@@H]1[C@@H](O[C@@H]2O[C@H](C)[C@@H](O[C@H]3C[C@@](C)(O)[C@@H](O)[C@H](C)O3)[C@H](N(C)C)[C@H]2O)[C@@H](CC=O)C[C@@H](C)[C@@H](O[C@@H]2CC[C@H](N(C)C)[C@@H](C)O2)/C=C/C=C/C[C@@H](C)OC(=O)C[C@H]1O	2.7%[56.6 µM]
CO/N=C(\C(=O)N[C@@H]1C(=O)N2C(C(=O)OCOC(=O)C(C)(C)C)=C(/C=C\c3scnc3C)CS[C@H]12)c1csc(N)n1	?
COc1ccc(-c2nc3cc(F)ccc3cc2CN(C(=O)c2cccc(OC)c2)C2CC2)cc1	1.2%
CC[C@@H](C)[C@@H](CO[C@@H](Cc1ccccc1)C(=O)N[C@@H](CCS(C)(=O)=O)C(=O)OC(C)C)NC[C@@H](N)CS	-12.3%
Cc1csc[n+]1CC(=O)c1ccccc1	?
COc1ccc2c(c1)OCC(Cc1ccc(O)c(OC)c1)C2=O (stereo not given)	-7.5%
CCOC(=O)c1ccc(C#Cc2ccc3c(c2)C(C)(C)CCS3)nc1	35.2%[activator]
CNc1nc(-c2ccccc2C(F)(F)F)nc2ccccc12	-17.6%
CNC(=O)c1c(I)c(C(=O)NCC(=O)Nc2c(I)c(C(=O)O)c(I)c(C(=O)NCCO)c2I)c(I)c(N(C)C(C)=O)c1I	-26.1%
CCOC(=O)/C=C1\CN(Cc2cc(OC)c(OC)c(OC)c2)S(=O)(=O)c2ccc(C(F)(F)F)cc21	?
Cc1cnc(-n2ncc(C(=O)N[C@H]3CCCCNC3=O)c2C2CC2)nc1-c1cccs1	-9.6%
CCO[C@@H]1O[C@H](C(COCc2ccccc2)OCc2ccccc2)[C@H](OCc2ccccc2)[C@H]1O (stereo not given in full)	-6.3%[56.6 µM]
COc1ccc(NC(=O)N2CCCC3(CCN(C(=O)c4c(C)noc4C)CC3)C2)cc1	-10.4%
O=C(NCc1cccnc1)c1cnn(-c2nccc(-c3cccs3)n2)c1C1CC1	8.5%
COc1ccccc1CNc1ccnc(-c2ccc(C(=O)N(C)C)cc2)n1	-18.0%
COCCNc1nc(-c2ccccc2CN(C)C)nc2ccccc12	-8.5%
CCCCOc1cc(CC2CNC(=O)N2)ccc1OC (stereo not given)	-3.1%
COc1ccc(CNc2cc(-c3ccccc3Cl)ncn2)c(OC)c1	?
CN(C)CCc1c[nH]c2ccc(CS(=O)(=O)N3CCCC3)cc12	-15.8%
CCOC(=O)c1ccc(O)cc1	?
COc1cccc(-c2cncnc2-n2ccnc2)c1	-35.8%
CC(C)=CCc1c2c(c(O)c3c(=O)c(O)c(-c4ccccc4)oc13)C=CC(C)(C)O2	-2.4%
Cc1ncc2c(c1CNC(=O)c1cncs1)CCN(C(=O)c1ccc(-c3ccccc3)cc1)C2	?
CN1C2CCC1CC(OC(c1ccccc1)c1ccccc1)C2 (stereo not given)	-1.6%
COc1ccc(Oc2ncc3nc(C)c(=O)n(C)c3n2)cc1	-20.8%
O=C(c1cnccn1)N1CCC2(CCN(Cc3ccncc3)CC2)CC1	-22.2%
Cc1c(C)c2c(c(C)c1OC(=O)c1cccnc1)CC[C@@](C)(CCC[C@H](C)CCC[C@H](C)CCCC(C)C)O2	-3.4%
COc1ccc(C(=O)N2CCC3(CCN(CC(C)C)CC3)CC2)cc1	-0.4%
C[N+]1(CC(=O)c2ccc(-c3ccccc3)cc2)CCOCC1	3.9%
CC(NC(=O)c1ccco1)c1nnc2n1CCN(Cc1ccc(Cl)cc1)CC2 (stereo not given)	6.4%
CC(C)CN1CCC2(CC1)CCN(S(=O)(=O)c1ccccc1)CC2	-12.4%
Cc1cccnc1-c1cccc2c1OC(CNC(=O)Cc1c(C)noc1C)C2 (stereo not given)	1.1%
COc1ccc(NC(=O)N2CC3(CCN(C(=O)c4cccc(F)c4)CC3)C2)cc1	-11.3%
Cn1cc(-c2nc3cncnc3n(Cc3ccc(F)cc3)c2=O)c2ccccc21	-0.6%
Cc1cccc(CN2CCc3nnc(C(C)NC(=O)C4CCOCC4)n3CC2)c1 (stereo not given)	-12.5%
N[C@H](Cn1ccc(=O)n(Cc2ccccc2C(=O)O)c1=O)C(=O)O	-10.4%
O=C(c1cccc(F)c1)N1CCC[C@@]2(CCN(Cc3ccccc3)C2)C1	-13.7%
Nc1ncnc2c1ncn2[C@@H]1O[C@H](COP(=O)(O)OP(=O)(O)O)[C@@H](O)[C@H]1O	-1.5%&-17.0%
CCCS(=O)(=O)NCc1c(C)ncc2c1CCN(C(=O)/C=C/c1ccc(F)cc1F)C2	-28.9%

Later entries
SMILES	EPAC2 antag
c1ccc(-c2onc(-c3ccco3)c2-c2ccc3c(c2)OCO3)cc1	-17.8%
CC(=O)N1CCC2(CCCN(c3ccncc3)C2)CC1	-22.9%
O=c1c(-c2cccc(F)c2)nc2cncnc2n1-c1ccccc1	-13.4%
Cc1noc(C)c1C(=O)N1CCC2(CCN(Cc3nccs3)CC2)CC1	-12.7%
COc1ccc(CNC(=O)C[C@H]2C(=O)N(CCc3ccccc3)C[C@@H]2Cc2ccccc2)cc1	-49.4%
C[C@@H]1NC(=O)[C@@H](N)CNC(=O)[C@H](C2CCNC(N)=N2)NC(=O)/C(=C/NC(N)=O)NC(=O)[C@H](CNC(=O)C[C@@H](N)CCCN)NC1=O (stereo not given in full)	1.9%[56.6 µM]
COc1ccc(-c2nc3cnc(N4CCNCC4)nc3n(Cc3cccs3)c2=O)cc1	?
CN(C)c1ccc(/C=c2\[nH]c(=O)/c(=C/c3ccc(N(C)C)cc3)[nH]c2=O)cc1	10.7%
COCC(=O)N1CCC2(CCCN(C(=O)Nc3cccc(C#N)c3)C2)CC1	-20.9%
CN(Cc1ccco1)c1cc(-c2cccnc2)ncn1	-2.5%
COc1ccccc1CNc1ccnc(-c2cccnc2)n1	-20.9%
Cc1cnc(CNc2ccnc(-c3ccc(C(=O)N(C)C)cc3)n2)cn1	-11.5%
C/C1=C/CC(C)(C)/C=C/C/C(C)=C/CC1	-6.6%
CC(C)OC(=O)Nc1ccc2nc(-c3cscn3)[nH]c2c1	14.1%
CCc1cccc2c(C(O)(c3c[nH]c4c(CC)cccc34)c3c[nH]c4c(CC)cccc34)c[nH]c12	-26.3%
CC(C)NC[C@H](O)COc1cccc2[nH]ccc12	8.5%&-24.6%&-19.0%
COc1ccc(Oc2ncc3nc(-c4ccc(Cl)cc4)c(=O)n(C4CC4)c3n2)cc1	5.5%
CC(C)CC(NC(=O)OCC1c2ccccc2-c2ccccc21)C(=O)O (stereo not given)	-16.8%
NCCS	-14.1%&-20.5%&-7.1%&14.4%
COc1cc(=O)n2c(c1C(=O)N(C)Cc1nonc1C)CCN(Cc1c(F)cccc1F)CC2	-19.3%
COc1ccc(-c2cc(=O)c3c(OC(C)=O)cc(OC(C)=O)cc3o2)cc1	-7.2%
C=CCN1CCN(c2nc3ccccc3nc2C#N)CC1	-1.4%&-28.7%
CN(C)CCOc1ccc(/C(=C(/CCCl)c2ccccc2)c2ccccc2)cc1	-13.2%
CC(=O)OCC1OC(Oc2cc(OC(C)=O)c3c(=O)cc(-c4ccc(OC(C)=O)cc4)oc3c2)[C@@H](OC(C)=O)C(OC(C)=O)C1OC(C)=O (stereo not given in full)	-21.3%
COc1cc(C)c(Cc2cnc(N)nc2N)cc1OC	-21.2%
O=C(c1csnn1)N1CCC2(CC1)CN(C(c1ccccc1)c1ccccc1)C2	?
C[C@@H]1CN(CCCn2c3ccccc3c3ccccc32)C[C@H](C)N1	-8.8%
COc1c(O)cccc1O	-14.4%
N[C@H](CO)Cc1cnc[nH]1	-11.3%
Cc1noc(C)c1-c1nccc(N(C)Cc2ccco2)n1	-17.9%
N#Cc1cccc(NC(=O)N2CC[C@@]3(CCCN(C(=O)c4cccc(F)c4)C3)C2)c1	-26.3%
CC1(C)OC2CC3C4CC(F)C5=CC(=O)CC[C@@]5(C)C4C(O)C[C@@]3(C)[C@]2(C(=O)CO)O1 (stereo not given in full)	-8.7%
O=c1c(-c2ccccc2)nc2cnc(Oc3ccccc3)nc2n1Cc1cccs1	-11.3%
C[C@H](C[C@H](N)C(=O)O)C(=O)O	-17.4%
FC(F)(F)c1ccccc1-c1ccc2ncnc(N3CCOCC3)c2c1	?

As a working copy, part of the list above.
SMILES	EPAC2 antag
COc1ccc(Oc2ncc3nc(-c4ccc(Cl)cc4)c(=O)n(C4CC4)c3n2)cc1	5.5%
CC(C)CC(NC(=O)OCC1c2ccccc2-c2ccccc21)C(=O)O (stereo not given)	-16.8%
NCCS	-14.1%&-20.5%&-7.1%&14.4%
COc1cc(=O)n2c(c1C(=O)N(C)Cc1nonc1C)CCN(Cc1c(F)cccc1F)CC2	-19.3%
COc1ccc(-c2cc(=O)c3c(OC(C)=O)cc(OC(C)=O)cc3o2)cc1	-7.2%
C=CCN1CCN(c2nc3ccccc3nc2C#N)CC1	-1.4%&-28.7%
CN(C)CCOc1ccc(/C(=C(/CCCl)c2ccccc2)c2ccccc2)cc1	-13.2%
CC(=O)OCC1OC(Oc2cc(OC(C)=O)c3c(=O)cc(-c4ccc(OC(C)=O)cc4)oc3c2)[C@@H](OC(C)=O)C(OC(C)=O)C1OC(C)=O (stereo not given in full)	-21.3%
COc1cc(C)c(Cc2cnc(N)nc2N)cc1OC	-21.2%
O=C(c1csnn1)N1CCC2(CC1)CN(C(c1ccccc1)c1ccccc1)C2	?
C[C@@H]1CN(CCCn2c3ccccc3c3ccccc32)C[C@H](C)N1	-8.8%
COc1c(O)cccc1O	-14.4%
N[C@H](CO)Cc1cnc[nH]1	-11.3%
Cc1noc(C)c1-c1nccc(N(C)Cc2ccco2)n1	-17.9%
N#Cc1cccc(NC(=O)N2CC[C@@]3(CCCN(C(=O)c4cccc(F)c4)C3)C2)c1	-26.3%
CC1(C)OC2CC3C4CC(F)C5=CC(=O)CC[C@@]5(C)C4C(O)C[C@@]3(C)[C@]2(C(=O)CO)O1 (stereo not given in full)	-8.7%
O=c1c(-c2ccccc2)nc2cnc(Oc3ccccc3)nc2n1Cc1cccs1	-11.3%
C[C@H](C[C@H](N)C(=O)O)C(=O)O	-17.4%
FC(F)(F)c1ccccc1-c1ccc2ncnc(N3CCOCC3)c2c1	?

An excerpt. The share of hits here may be higher or lower than overall.
